Rango dissoc inh: inhibitors of RanGTP-induced Rango-importin beta complex dissociation; 340,000 tested, 0.071% active; Biochemical FRET Rango-importin beta, RanGTP-induced dissociation; O95149+P62826; AID 540253; Potency, µM (doses to about 46.1 µM), for the others: at the highest dose activity change, negative = inhibition; active means falling FRET ratio curve, often poorly fitted, with flat reads before Ran was added; inconclusive means other falling curves, or compound fluorescence or quenching; inactive means flat or rising ratio curve;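 also: potency is read from the fitted curve at half-maximal effect; % of control where 0% means no effect; nearly all actives have a fitted effect of over 45% in size; -100% = wells without RanGTP and RCC1; the record marks most hits as doubtful in a second field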
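Rango FRET biosensor (snurportin-1 IBB flanked by N-terminal EYFP and C-terminal CFP10) at 0.1 uM, with 0.25 uM importin beta in PBS, 1mM DTT, 0.02% Tween-20, 0.1% BSA. 0.6 uM Ran, 2mM GTP and 0.2 uM RCC1 were then added for 45 min at room temperature. Inhibition read as loss of FRET rise.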
Rango complex inh: prevents formation of the Rango-importin beta complex; Q14974; Rango CFP/YFP FRET sensor + importin beta, 45 min; Potency, µM (titrated, usually from 92.2 µM), for inactives: at the highest dose inhibition of complex formation; 340,000 tested, 0.031% active; AID 540263; active = rising FRET ratio curve, often small or poorly fitted; inconclusive = mostly compound fluorescence or quenching in the first reads; inactive = flat curves in all reads;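 also: potency is read from the fitted curve at half-maximal effect; 0% = DMSO wells and 100% = buffer wells lacking importin beta; nearly all actives have a fitted effect of over 15% in size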
Target sequence (Q14974 whole entry, looked up): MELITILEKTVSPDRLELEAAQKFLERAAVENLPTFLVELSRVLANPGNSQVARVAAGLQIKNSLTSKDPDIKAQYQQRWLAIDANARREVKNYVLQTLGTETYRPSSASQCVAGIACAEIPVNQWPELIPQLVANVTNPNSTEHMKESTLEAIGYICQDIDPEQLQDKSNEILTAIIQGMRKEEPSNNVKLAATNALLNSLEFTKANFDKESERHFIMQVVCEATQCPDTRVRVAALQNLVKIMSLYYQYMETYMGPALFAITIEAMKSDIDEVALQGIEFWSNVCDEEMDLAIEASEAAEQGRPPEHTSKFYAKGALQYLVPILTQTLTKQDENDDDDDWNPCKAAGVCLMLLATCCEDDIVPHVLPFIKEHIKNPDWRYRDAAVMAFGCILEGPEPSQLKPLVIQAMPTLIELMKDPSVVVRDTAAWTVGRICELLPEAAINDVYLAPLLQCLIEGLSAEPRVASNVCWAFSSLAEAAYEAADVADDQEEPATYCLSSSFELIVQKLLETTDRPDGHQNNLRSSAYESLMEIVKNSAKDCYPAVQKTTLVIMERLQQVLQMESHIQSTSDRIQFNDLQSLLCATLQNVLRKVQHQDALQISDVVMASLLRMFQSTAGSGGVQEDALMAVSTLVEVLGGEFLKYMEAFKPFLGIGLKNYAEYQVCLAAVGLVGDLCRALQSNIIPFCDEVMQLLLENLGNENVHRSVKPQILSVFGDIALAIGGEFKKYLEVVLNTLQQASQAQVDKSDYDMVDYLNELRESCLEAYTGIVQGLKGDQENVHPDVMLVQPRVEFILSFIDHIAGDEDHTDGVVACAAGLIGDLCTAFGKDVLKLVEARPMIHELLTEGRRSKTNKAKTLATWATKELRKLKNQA
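FRET biosensor (snurportin 1 IBB flanked by EYFP and cerulean), 50 nM, with compound 5 min, then 0.125 microM importin beta in PBS, 1 mM DTT, 0.02% Tween-20, 0.1% BSA. CFP/YFP ratio read after 45 min at room temperature; pre-read flags interference.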
miR-21 reporter: miR-21 reporter, rising signal. 340,000 tested, under 10 active. Potency, µM (highest dose often 38.3 µM), for inactives: top-dose reporter change, positive = more light. HeLa miR-21 FLuc reporter, luciferase, 48 h; active = well fitted rising curve with a large enough effect; inconclusive = small, poorly fitted or top-dose-only effect; inactive = no such curve, though single readings can be large or run the other way;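 also: % of control where 0% means no effect; miR-21 action dims this reporter so a rising signal means less miR-21 action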
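HeLa miR-21-FLuc reporter line, endogenous miR-21; 2000 cells/well in DMEM/10% FBS; compound titration up to ~40uM final, 48 h, 37 degree Celsius; luciferase detection reagent, 15 min lysis, CCD luminescence.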
GLA inh pH 4.5: inhibitors of human alpha-galactosidase A at pH 4.5 | AID 1467 | 230,000 tested, under 10 active | purified enzyme, 4-MU-alpha-Gal fluorescence, pH 4.5 | P06280 | activity change, negative = inhibition, % at 105 µM; inconclusive = small, poorly fitted or top-dose-only inhibition, or a rising curve; inactive = flat fitted curve, though single readings scatter; no compound was filed as active;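 also: 0% = full activity with enzyme and -100% = basal without enzyme; dose as in the result columns while the protocol names 77 µM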
* marks the source's active call; other numbers are inactive results; ? = inconclusive; · = no result given. Not all compounds are listed; rates above refer to the full screens.

SMILES	Rango dissoc inh	Rango complex inh	miR-21 reporter	GLA inh pH 4.5
COc1ccc(OC)c(/C=C2\SC(=S)N(C(C(=O)O)c3ccccc3)C2=O)c1 (stereo not drawn)	?	?	-7.9%	-19.9
Cn1c(-c2ccc(CN3CCCCC3)o2)nc2ccccc21	-15.5%	-2.3%	-28.0%	3.2
CCCOc1nnnn1-c1ccccc1	12.0%	-0.2%	-4.5%	2.4
O=C(O)c1ccc2c(c1)S(=O)(=O)N=C1CCCCCN12	-1.9%	?	0.1%	-1.8
OCCNCC(O)CN1c2ccccc2Sc2ccccc21 (stereo not drawn)	-5.1%	3.5%	4.1%	·
COc1ccc2nc(N3C(=O)CC(C(C)c4ccccc4)C3=O)sc2c1 (stereo not drawn)	8.4%	-2.6%	-5.7%	2.6
Cc1cc(NC(=O)COC(=O)[C@@H](NS(=O)(=O)c2ccc(Br)cc2)C(C)C)no1	26.9%	3.5%	0.9%	3.7
CCN1CCc2c(OCC(=O)Nc3ccc(C)cc3)cccc2C1=O	-5.5%	-1.4%	-3.8%	·
COc1cc(C)c(Cl)cc1S(=O)(=O)N1CCCC1	11.0%	0.6%	-12.7%	-0.4
CS(=O)(=O)N1CCN(c2ccccc2NC(=O)c2cccnc2)CC1	0.6%	-2.5%	-5.5%	5.1
CC(C)(C)n1cn[nH]c1=S	5.4%	-1.7%	-0.5%	4.4
COc1ccc2oc(=O)c(C(=O)O)cc2c1	-13.3%	-1.1%	-11.1%	0.9
O=C(Nc1ccc(OC(F)(F)F)cc1)c1ccc2ccccc2n1	-14.9%	2.7%	-12.3%	-3.5
Cc1n[nH]c(=O)nc1NCc1ccc(Cl)cc1	1.9%	0.6%	-3.3%	-0.9
CC(CS(=O)(=O)c1ccc2c(c1)NC(=O)CS2)C(=O)NCc1ccccc1Cl (stereo not drawn)	4.6%	?	1.3%	·

Results in Rango complex inh, for 4 of the compounds above:
| Molecule | Rango complex inh |
| --- | --- |
| COc1ccc2nc(N3C(=O)CC(C(C)c4ccccc4)C3=O)sc2c1 (stereo not drawn) | -2.6% |
| Cc1cc(NC(=O)COC(=O)[C@@H](NS(=O)(=O)c2ccc(Br)cc2)C(C)C)no1 | 3.5% |
| CCN1CCc2c(OCC(=O)Nc3ccc(C)cc3)cccc2C1=O | -1.4% |
| COc1cc(C)c(Cl)cc1S(=O)(=O)N1CCCC1 | 0.6% |

Next part
SMILES	Rango dissoc inh	Rango complex inh	miR-21 reporter	GLA inh pH 4.5
Cc1c(C(=O)NCc2ccc3c(c2)OCO3)sc2nc(-c3ccc(F)cc3)cn12	7.5%	-2.5%	-1.4%	7.3
CC(Oc1ccc(Cl)cc1)C(=O)NCCN1C(=O)S/C(=C\c2cccnc2)C1=O (stereo not drawn)	-7.2%	-1.8%	16.8%	3.3
Cc1ccc(C2CC(=O)NC(SCc3ccccc3)=C2C#N)cc1 (stereo not drawn)	-11.9%	0.2%	1.4%	-28.7
O=C(Cn1nc(-c2ccccc2)ccc1=O)NCCN1CCN(Cc2ccccc2)CC1	-11.4%	3.1%	-2.6%	4.9
CCOC(=O)C1=C(c2ccccc2)Nc2ncnn2C1c1ccc(OC)c(OC)c1OC (stereo not drawn)	-12.1%	-4.4%	-4.6%	-17.6
CCn1c2ccccc2c2nnc(SCC(=O)N(C)C3CCS(=O)(=O)C3)nc21 (stereo not drawn)	0.1%	-1.0%	-13.6%	-8.7
CCC(=O)c1ccc(OCC(=O)OCC(=O)Nc2sccc2C(N)=O)cc1	3.6%	1.9%	-0.5%	1.6
CC(C)Cc1nnc(NC(=O)Cc2ccc([N+](=O)[O-])cc2)s1	-7.2%	0.2%	-4.3%	4.4
COc1ccccc1C(=O)NNC(=O)c1ccc(NC(=O)c2ccccc2)cc1	14.7%	-5.0%	3.0%	5.6
COC(=O)c1c(NC(=O)c2ccccc2[N+](=O)[O-])sc2c1CC(C)(C)NC2(C)C	-8.7%	8.4%	-4.8%	-2.5
NC(=O)c1cc(C(=O)c2ccc(Cl)cc2Cl)c[nH]1	46.9%	-3.3%	9.9%	-7.2
CCn1c(=O)c(C(=O)NNC(=O)c2ccccc2Cl)c(O)c2ccccc21	-4.3%	-1.1%	-4.1%	·
COC(=O)c1cc(=O)n(-c2ccc(F)cc2)c(=Nc2ccc(F)cc2)s1	9.0%	0.7%	23.5%	0.8
COc1ccc(-c2csc(NC(=S)NC(=O)c3ccccc3)n2)cc1Br	5.5%	8.4%	-1.2%	-4.6
COCc1nnc(NC(=O)CC(c2ccccc2)c2ccccc2)s1	-0.4%	0.3%	-7.0%	-2.8
Cc1ccccc1Oc1nc2c(c(=O)n(C)c(=O)n2C)n1C	-4.7%	-3.9%	-0.3%	·
CC1=C(C)CS(=O)N(S(=O)(=O)c2ccc(Cl)cc2)C1 (stereo not drawn)	-4.6%	-3.0%	23.9%	7.7
O=C(Nc1ccccc1)C1=C[C@H](C2CCCCC2)C[C@H](OCCCCO)O1	-13.7%	-0.7%	·	·
O=C(NCCN1CCOCC1)C1CCN(Cc2ccccc2O)CC1	-6.0%	0.1%	-5.1%	3.2
c1coc(-c2nnc3n2C2(CCCC2)Cc2ccccc2-3)c1	-13.1%	1.9%	-8.2%	-3.9
Cn1cnnc1SCC(=O)Nc1nc(-c2ccc(F)cc2)cs1	-1.1%	1.1%	-3.7%	-5.6
O=S(=O)(Nc1ccccn1)c1cnc(Cl)c(Br)c1	-15.9%	-2.4%	0.5%	6.7
Cc1cc(OC(=O)c2ccccc2C)c([N+](=O)[O-])c(=O)[nH]1	-2.1%	-0.3%	-3.2%	·
CCOC(=O)c1nnn(-c2nonc2N)c1CN1CCCC1	?	?	5.4%	·
N#Cc1nc(Cc2cccc3ccccc23)oc1N1CCN(c2ccccc2)CC1	-5.0%	-0.3%	3.3%	3.0
CCn1c(SC)nnc1C1CCN(CC(=O)Nc2ccccc2N2CCOCC2)CC1	19.1%	-2.1%	-3.4%	·
CCCCNS(=O)(=O)c1ccc2nc(-c3cccnc3)cc(C(=O)NC3CC3)c2c1	-15.9%	-4.4%	-12.7%	-1.0
O=C1CCC(=O)N(c2ccccc2)N1	4.5%	-2.1%	-1.4%	·
COc1ccccc1NS(=O)(=O)c1cccc(C(=O)N/N=C/c2ccc([N+](=O)[O-])o2)c1	?	-5.0%	·	·
COc1ccccc1CNC(=O)c1ccoc1C	-10.8%	?	-5.0%	-6.6
CCOC(=O)c1cnc(-c2ccccc2)nc1Oc1ccccc1	-18.5%	2.7%	-6.8%	-7.4
CC1=CC(C)C(/C=N/N=C(N)N)C(C)C1 (stereo not drawn)	0.3%	3.2%	5.3%	-5.5
COc1ccccc1Nc1nc(N)nc(CN2CCN(c3ccccc3)CC2)n1	-7.1%	-2.1%	0.1%	0.7
Cc1ccc(-n2nc3c(SCCN4CCOCC4)nnc(C)c3c2C)cc1	9.1%	0.0%	-3.0%	-3.3
CSc1ccccc1C(=O)NC1CCCc2ccccc21 (stereo not drawn)	-13.3%	?	-8.2%	·
Cc1cccc(C(=O)N/N=C2/SCC(=O)N2Cc2ccccc2)c1	-3.9%	-2.2%	-11.9%	-0.9
C#CCOCCOCCOCCNc1nc(N2CCN(C(=O)Cn3cc(CCO)nn3)CC2)nc(N2CCN(C(=O)[C@H](CCCCN)n3cc(CC(C)O)nn3)CC2)n1 (stereo partly drawn)	-1.5%	?	·	·
CCC(=O)Oc1c(C(=O)CC)cc2c(C)cc(=O)oc2c1C	?	?	11.2%	-5.3
Cc1c(C(=O)N2CCN(c3ncccn3)CC2)oc2ccc(Cl)cc12	-14.1%	-0.3%	·	·
CCOC(=O)C1CCN(C(=O)CCCN2C(=O)c3ccccc3C2=O)CC1	0.9%	3.0%	0.2%	-4.5
COc1cc(OC)c(OC)cc1CN1CCN(C(=O)c2cccc3ccccc23)CC1	-3.3%	0.1%	3.5%	·
O=C(O)c1cccc(NC(=O)c2ccc3c(c2)C(=O)N(c2cccc([N+](=O)[O-])c2)C3=O)c1	-0.1%	0.2%	2.3%	·
CCCCC#Cc1ccc(C(=O)NNC(=O)Nc2cc(Cl)cc(Cl)c2)o1	18.1%	-4.1%	-2.6%	-3.5
CCOC(=O)c1cn2nc(-c3ccc(OC)cc3)cc2nc1C1CCN(C(=O)OC(C)(C)C)CC1	0.7%	-1.5%	-2.7%	6.1
CC(=O)OCCNc1nc(-c2ccccc2)nc2ccccc12	-11.1%	-2.6%	4.7%	-5.5
Cn1cc(CN2CCc3sccc3C2)c(-c2ccccc2F)n1	-18.2%	-6.4%	-11.8%	4.1
CCOC(=O)CSc1nc(C)c(C(=O)OCC)s1	10.7%	-1.3%	-6.2%	4.9
CCC1C(C#N)=C(N)OC2=C1C(=O)CC(C)(C)C2 (stereo not drawn)	3.1%	-0.4%	-3.0%	-2.7
COc1ccc(/C=C/C(=O)NC2=NCCS2)cc1OC	2.8%	-3.5%	-24.4%	6.3
CC1CCN(S(=O)(=O)c2ccc(NC(=O)c3ccncc3)cc2)CC1	-19.8%	-1.7%	18.1%	·
Cc1ccc(-c2cc(C(=O)Nc3ccc4c(c3)OCCO4)c3ccccc3n2)cc1	-22.0%	-0.1%	-20.9%	-12.6
CCCn1nnnc1SCC(=O)Nc1sc(C)c(C)c1C#N	30.0%	-4.4%	-0.7%	3.4
COC(=O)[C@@]1(Cc2ccccc2)[C@H]2C(=O)N(C)C(=O)[C@H]2[C@H]2CN=C(SCC(=O)c3ccccc3)N21	0.5%	0.4%	·	·
O=C(NCc1ccccn1)c1ccc(Cn2c(=S)[nH]c3ccc(Br)cc3c2=O)cc1	21.1%	?	-11.6%	8.8
CN1CCN(Cc2nc3ccccc3c(=O)n2CC#N)CC1	-7.9%	3.6%	1.6%	6.8
O=C1Nc2ccc(Br)cc2/C1=C/C(=O)c1ccccc1	1.0%	-0.3%	·	·
Cc1cccc(N2C(=O)CSC2c2cccnc2)c1 (stereo not drawn)	-12.5%	-5.3%	0.4%	7.0
Fc1ccc(-c2cc(C(F)(F)F)nc(N3CCCCC3)n2)cc1	-1.7%	-0.2%	-0.1%	0.1
C=CCNC(=S)N1CCN(S(=O)(=O)c2ccc(C)cc2)CC1	-12.2%	1.3%	2.4%	-3.8
Cc1ccccc1NC(=O)CCCC(=O)c1ccccc1	0.2%	3.4%	-10.9%	·

Quoted at random: 2 records from the list.
SMILES	Rango dissoc inh	Rango complex inh	miR-21 reporter	GLA inh pH 4.5
O=C1Nc2ccc(Br)cc2/C1=C/C(=O)c1ccccc1	1.0%	-0.3%	·	·
Fc1ccc(-c2cc(C(F)(F)F)nc(N3CCCCC3)n2)cc1	-1.7%	-0.2%	-0.1%	0.1

The results go on:
SMILES	Rango dissoc inh	Rango complex inh	miR-21 reporter	GLA inh pH 4.5
CCc1ccc(N(C(=O)c2ccco2)C(C(=O)NC2CCCC2)c2ccncc2)cc1 (stereo not drawn)	11.3%	-2.4%	-29.1%	·
CN(C)CCn1c2c(c(SCC(=O)Nc3cccc4ccccc34)nc1=O)CCCC2	1.6%	0.2%	·	·
CCOc1ccc(NC(=O)C(C)Oc2ccccc2C(=O)Nc2cccc(Cl)c2Cl)cc1 (stereo not drawn)	-13.8%	4.1%	-7.5%	4.1
COCCN(Cc1ccc(F)cc1)C(=O)c1cc2ccccc2oc1=O	-23.3%	-1.1%	-13.8%	·
CCCn1c(SCC(=O)Nc2ccccc2-c2ccccc2)nnc1-c1ccoc1C	-9.7%	2.7%	9.3%	-0.5
CC(=O)Nc1ccc(C(=O)OCC(=O)NC(=O)NC2CCCCC2)cc1	9.3%	?	1.1%	-1.9
COC(=O)C1CCN(c2nc3ccccc3nc2C(C#N)C(=O)NCCc2ccccc2)CC1 (stereo not drawn)	?	?	4.3%	-7.2
Cc1ccc(C(=O)Nc2ccc(C)c(S(=O)(=O)Nc3ccccc3Cl)c2)s1	15.8%	2.8%	17.9%	5.3
CCC(C)(C(=O)NC1CCCCC1)N(C(=O)CNC(C)=O)c1c(C)n(C)n(-c2ccccc2)c1=O (stereo not drawn)	-3.2%	-2.6%	-10.1%	-3.0
CC(OC(=O)c1ccccc1C(=O)N(C)c1ccccc1)C(=O)Nc1ccccc1[N+](=O)[O-] (stereo not drawn)	3.5%	3.5%	·	·

Screens as filed in PubChem BioAssay.
